HCMV UL50-53 inh – cytomegalovirus nuclear egress complex inhibition | HTRF UL50-UL53 interaction, normalized percent inhibition | inhibition, % (test concentration not listed) | actives 0.15% (n = 190,000) | AID 1918969;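 active means both replicates at 50% or more, plus weaker picks with an unusually low signal ratio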;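 further: stock transfer was 100 nL into about 20 µL; 0% = negative control wells and 100% = wells with untagged competitor protein; inactives centre near -12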
GIV Gai3 FP – inhibitors of GIV GBA-motif binding to rat Galpha-i3. actives 0.42% (n = 210,000). percent of control (FP), % (no concentration beside the values). Galpha-i3/FITC-GIV peptide fluorescence polarization, 90 min; hits give low values; scaled: aluminum fluoride 0%, vehicle 100%. AID 1224905. P08753;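 active means replicate mean at 85% of control or lower, very high polarization wells dropped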;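 further: wells of about 15 µL received 100 nL stock; the first replicate is given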
Target sequence (P08753 whole entry, looked up): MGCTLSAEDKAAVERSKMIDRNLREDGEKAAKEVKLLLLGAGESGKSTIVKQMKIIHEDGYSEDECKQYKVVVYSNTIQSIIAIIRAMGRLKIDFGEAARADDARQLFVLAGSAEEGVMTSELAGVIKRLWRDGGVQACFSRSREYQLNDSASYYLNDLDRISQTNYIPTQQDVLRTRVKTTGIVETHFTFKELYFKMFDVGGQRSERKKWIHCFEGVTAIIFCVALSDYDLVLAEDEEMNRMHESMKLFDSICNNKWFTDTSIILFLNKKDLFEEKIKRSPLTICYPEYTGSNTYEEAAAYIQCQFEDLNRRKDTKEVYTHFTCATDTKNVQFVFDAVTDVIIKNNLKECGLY
Sa growth inh – blocks Staphylococcus aureus growth; S. aureus RN4220 growth, OD600, 20 h, 42 °C; hits give low values; relative growth, % (test concentration not listed); actives 0.53% (n = 170,000);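 active means growth at 42 °C up to 50% and 20 or more points under that at 30 °C, or under 10% at both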;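 further: 300 nL library stock went into each well; scaled to the means of positive and negative controls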
Sa growth inh second temp – second read-out of Sa growth inh, no call of its own (marks repeat the call); relative growth, %; measured here: growth at 30 °C;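 optical density after 20 h as mean of two plates; 100% = untreated growth and lower means inhibition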
Active calls of the source: *; . = not tested or not shown; & = joins results of further samples.

SMILES | HCMV UL50-53 inh | GIV Gai3 FP | Sa growth inh | Sa growth inh second temp
Cc1cc(C)c(C#N)c(SS(=O)(=O)c2nc(C)cc(C)c2C#N)n1 | -17.7 | 102.8 | 78.0 | 83.3
CN(C1CCCCC1)S(=O)(=O)N1CCCC(C(=O)NCc2cccc(Br)c2)C1 (stereo not given) | -38.2 | 109.8 | 107.9 | 88.3
CCCNC(=O)c1ccc2c(c1)c(C)c(C)n2C | -11.8 | 111.0 | 107.5 | 90.6
O=C(Oc1cccnc1)c1cc2ccccc2o1 | -8.5 | . | 102.5 | 67.8
CCNC(=O)NC1CCN(c2nc(C)cc(C)n2)CC1 | -12.6 | 103.6 | . | .
COc1ccc(-c2nc3n(n2)C(c2ccccc2OC)C(C(=O)Nc2cccnc2)=C(C)N3)cc1 (stereo not given) | -22.7 | 101.3 | 96.7 | 72.5
CN(C)c1ccc(/C=C2\Cc3ccccc3C2=O)cc1 | . | -74.8* | 89.5 | 95.4
COc1ccc(N2CC(C(N)=O)CC2=O)cc1 (stereo not given) | -3.3 | . | 91.8 | 87.9
Cc1ccc2c(C)nc(Nc3ncc4c(n3)CCCC4=O)nc2c1 | -13.5 | 92.9 | . | .
COCCNC(=O)c1ccc(Cn2c(SCC(N)=O)nc3ccccc3c2=O)cc1 | . | 101.7 | 100.8 | 89.7
Cc1c(CN2CCC(N3CCCCC3)CC2)sc2ccccc12 | -21.6 | 104.4 | 94.8 | 89.2
CC1(C(=O)Nc2ncc(Cc3ccc(Br)cc3)s2)Cc2ccccc2C(=O)O1 (stereo not given) | -1.2 | 108.3 | 77.5 | 84.6
CCOc1ccc(CO[C@@H]2O[C@H](CO)[C@@H](O)[C@H](O)[C@H]2NC(C)=O)cc1OC | . | 100.9 | 95.2 | 85.1
COc1ccc(NC(=O)Cn2cnc3c(nnn3-c3cccc(Cl)c3)c2=O)c(OC)c1 | 1.3 | 99.9 | 102.6 | 99.8
O=C(CSc1nnc(CCCN2C(=O)c3cccc4cccc(c34)C2=O)n1-c1ccccc1)NCc1cccnc1 | -29.8 | 104.1 | . | .
Cc1cc(C)c(NC(=O)COC(=O)C2CCC(=O)N2)c(C)c1 (stereo not given) | -5.4 | . | 87.1 | 98.9
O=C(NCCCn1ccnc1)c1ccccc1Cl | . | 101.9 | 110.8 | 76.0
CN1CCN(c2nc3c(S(=O)(=O)c4ccccc4)nnn3c3ccsc23)CC1 | . | 108.6 | 136.4 | 98.5
COC(=O)C1=C(C)N(C2CCCCC2)C(=O)/C1=C\c1cccs1 | . | 100.3 | 110.8 | 106.8
O=C(Nc1ccc(Br)cc1F)C1CCC(=O)N1S(=O)(=O)c1ccccc1 (stereo not given) | -11.3 | 104.3 | . | .
Fc1ccccc1-c1nnc2sc(-c3cc4ccccc4[nH]3)nn12 | -15.6 | 146.2 | . | .
O=S(=O)(c1cc(F)ccc1F)N1CCC2(CC1)Nc1ccc(Cl)cc1-n1cccc12 | -2.8 | 106.0 | . | .
O=C(CN1CCCCC1)N=Nc1c(O)[nH]c2ccccc12 | -87.6 | 102.4 | 92.6 | 76.6
CCSc1nc(-c2ccc(OC)cc2)n(-c2nc3ccccc3s2)n1 | -12.9 | 103.2 | 84.5 | 84.6
CCOc1ccc(NC2SC(=O)N(CCC(=O)O)C2=O)cc1 (stereo not given) | -12.6 | 99.8 | 97.5 | 96.2
COc1ccc(OC)c(C(=O)c2coc3c2cc(O)c2ccccc23)c1 | 6.6 | 101.4 | 107.1 | 109.1
Cn1c(=O)cc(SCC(=O)N2CCN(c3cccc(Cl)c3)CC2)c2ccccc21 | . | 103.1 | 88.2 | 89.5
CC1N(C)c2ccc(C=C(C#N)C#N)cc2C1(C)C (stereo not given) | -49.0 | . | 80.7 | 75.0
COc1cccc(OCC(=O)NCC2CCCO2)c1 (stereo not given) | -1.8 | . | 101.6 | 91.1
CCc1nn(CC(=O)NCc2ccc(OC)c(OC)c2)c(=O)c2cc3sc(C)cc3n12 | -31.6 | 102.0 | 123.2 | 100.7
COc1ccc(NC(=O)Cn2c(-c3ccccc3Cl)nc3sc(C)c(C)c3c2=O)cc1OC | -16.9 | 99.0 | . | .
Cc1ccsc1/C=N/N1CCOCC1 | -26.4 | . | 84.0 | 90.4
O=C(Nc1ccc(OC(F)(F)F)cc1)c1ccc(=O)[nH]c1 | -23.2 | . | 73.5 | 96.5
CCOC(=O)C1CCN(Cc2nc3sc4c(c3c(=O)[nH]2)CCCC4)CC1 | -15.5 | . | 104.2 | 93.3
C=CCC(O)(c1ccc(O)cc1)C(CN1CCCCC1)c1ccccc1 (stereo not given) | 5.6 | 103.2 | 118.6 | 99.5
O=C(Cc1coc2cc(O)ccc12)OCc1ccccc1C(F)(F)F | -11.9 | . | 111.3 | 68.3

Part of the list above, set out differently.
Values run as follows: HCMV UL50-53 inh	GIV Gai3 FP	Sa growth inh	Sa growth inh second temp
- Cc1ccc2c(C)nc(Nc3ncc4c(n3)CCCC4=O)nc2c1
→ -13.5	92.9	.	.
- COCCNC(=O)c1ccc(Cn2c(SCC(N)=O)nc3ccccc3c2=O)cc1
→ .	101.7	100.8	89.7
- Cc1c(CN2CCC(N3CCCCC3)CC2)sc2ccccc12
→ -21.6	104.4	94.8	89.2
- CC1(C(=O)Nc2ncc(Cc3ccc(Br)cc3)s2)Cc2ccccc2C(=O)O1 (stereo not given)
→ -1.2	108.3	77.5	84.6

(list continues)
SMILES | HCMV UL50-53 inh | GIV Gai3 FP | Sa growth inh | Sa growth inh second temp
N#CCOC(=O)c1cnc(Cl)c(Cl)c1 | -12.1 | . | 73.4 | 88.6
O=C(/C=C/c1ccc2c(c1)OCO2)N1CCCCC1 | . | 98.8 | 92.0 | 84.8
COc1cc(C)c(S(=O)(=O)Nc2cccc(-c3ccc(N4CCCC4)nn3)c2)cc1C | . | 101.5 | 91.2 | 93.6
CCCNC(=O)c1ccccc1Br | -11.4 | . | 100.3 | 88.0
COCCCN=C1NC(=O)C(CC(=O)Nc2ccc(Cl)cc2)S1 (stereo not given) | -27.0 | 104.6 | 95.8 | 90.5
Cc1ccc(S(=O)(=O)c2nc(-c3ccc(Cl)cc3)oc2N2CCCCCC2)cc1 | -16.2 | 101.3 | 91.0 | 92.2
O=Nc1c(O)[nH]c2cc3c(cc12)OCCO3 | -76.0 | . | 86.3 | 95.7
CCN(CC)S(=O)(=O)c1ccc(NC(=O)Cc2ccc3c(c2)OCCO3)cc1 | -15.8 | . | 79.1 | 96.4
O=C(O)CCC(=O)OCc1ccccc1 | 1.8 | . | 89.2 | 123.3
Cc1ccc(N2N=NC3CCC(C4=CCCC4)C32N2CCOCC2)cc1C (stereo not given) | -23.4 | . | 108.5 | 89.0
O=C(NC(=S)N1CCCCC1)c1ccccc1 | 25.3 | 104.5 | 104.8 | 94.5
CCCNC(=O)N1c2ccc(F)cc2CCC1C (stereo not given) | -13.2 | 101.9 | 104.7 | 77.2
CCOc1cc(C(=O)NC(=S)Nc2cccc(-c3ccc(CO)o3)c2)cc(OCC)c1OCC | -4.2 | 108.8 | 125.0 | 99.0
CCC(=O)Nc1ccccc1N1CCCC1 | -14.5 | . | 112.3 | 83.7
Clc1ccc(-c2nnc(-c3ccc(Cl)cc3)o2)cc1 | -25.8 | 98.9 | 110.2 | 89.5
CC(=O)N/C(=C\c1ccccc1)C(=O)O | 8.4 | 103.0 | 100.7 | 113.7
O=C(NC1CC(=O)N(c2cccc(F)c2)C1)c1ccc(S(=O)(=O)N2CCCCC2)cc1 (stereo not given) | . | 97.9 | 100.0 | 90.5
CCOC(=O)c1[nH]c(COC(=O)C2CC(=O)N(Cc3ccccc3)C2)c(C(=O)OCC)c1C (stereo not given) | -30.8 | . | 89.3 | 88.8
N=c1oc2ccccc2cc1C(=O)Nc1ccc(Cl)cc1Cl | -15.1&-10.9 | 98.9 | 120.0 | 85.8
CCCNC(=O)C12CC3CC(CC(C3)C1)C2 | -12.3 | 97.6 | 87.9 | 75.9
CCOC(=O)c1c(-c2ccc(C)cc2)csc1/N=C/c1nc(-c2ccco2)oc1O | 0.7 | 94.4 | . | .
Cc1cc(N(C(=O)c2cc3c(s2)CCC3)C(=O)c2cc3c(s2)CCC3)no1 | 11.7 | . | 88.6 | 92.0
Cc1ccc(/C=C2\CC(C)CC3=C2NC(=S)NC3c2ccc(C)cc2)cc1 (stereo not given) | . | 107.4 | 110.9 | 67.8
Cc1noc(C)c1COc1ccc(C(=O)OCC(=O)N2CC(=O)Nc3ccccc32)cc1 | -1.9 | . | 94.5 | 98.1
Cc1ccc(S(=O)(=O)Nc2cc(S(=O)(=O)O)c(N)c3c2C(=O)c2ccccc2C3=O)cc1 | -121.3 | 104.1 | . | .
Cc1cc2c(cc1S(=O)(=O)N1CCN(c3ccccc3)CC1)OCCN2C | -22.0 | 100.1 | 105.8 | 81.7
COc1ccc(COC(=O)C2=C(C)NC3=C(C(=O)CCC3)C2c2cc3c(cc2[N+](=O)[O-])OCO3)cc1 (stereo not given) | -25.1 | 104.9 | . | .
CCOC(=O)c1[nH]c(C)c(CN(Cc2ccccc2)S(=O)(=O)CC)c1C | 2.1 | . | 80.3 | 72.6
Cc1cccc(NC2=NC(c3ccccc3)n3c(nc(C)cc3=O)N2)c1 (stereo not given) | 5.4 | 95.5 | . | .
O=C(Cn1c(=O)c(F)cn(C2CCCO2)c1=O)Nc1cccc(I)c1 (stereo not given) | -20.1 | . | 115.4 | 96.2
Cc1ccc(C(=O)c2cn(CC(=O)NCC3CCCO3)c3nc(C)ccc3c2=O)cc1 (stereo not given) | 9.2 | 105.6 | . | .
COc1ccc(-c2csc3ncnc(NCCO)c23)cc1 | 2.5 | . | 113.9 | 79.1
O=C(CC1CCCCC1)NCc1cn2ccsc2n1 | . | 103.1 | 98.7 | 86.4
Cn1c(CC(N)=S)nc2ccccc21 | -43.6 | . | 82.9 | 57.3
COc1ccc(-n2nnc3c(=O)n(CC(=O)NCC4CCCO4)cnc32)cc1 (stereo not given) | 7.7 | 102.6 | 97.1 | 104.2
CSCCC1C2=C(CC(C)(C)CC2=O)Nc2c1c(C)nn2-c1nc2ccccc2s1 (stereo not given) | -17.6 | . | 104.6 | 82.5

Entries above containing fluorine:
SMILES | HCMV UL50-53 inh | GIV Gai3 FP | Sa growth inh | Sa growth inh second temp
O=C(Nc1ccc(Br)cc1F)C1CCC(=O)N1S(=O)(=O)c1ccccc1 (stereo not given) | -11.3 | 104.3 | . | .
Fc1ccccc1-c1nnc2sc(-c3cc4ccccc4[nH]3)nn12 | -15.6 | 146.2 | . | .
O=S(=O)(c1cc(F)ccc1F)N1CCC2(CC1)Nc1ccc(Cl)cc1-n1cccc12 | -2.8 | 106.0 | . | .
O=C(Nc1ccc(OC(F)(F)F)cc1)c1ccc(=O)[nH]c1 | -23.2 | . | 73.5 | 96.5
O=C(Cc1coc2cc(O)ccc12)OCc1ccccc1C(F)(F)F | -11.9 | . | 111.3 | 68.3
CCCNC(=O)N1c2ccc(F)cc2CCC1C (stereo not given) | -13.2 | 101.9 | 104.7 | 77.2
O=C(NC1CC(=O)N(c2cccc(F)c2)C1)c1ccc(S(=O)(=O)N2CCCCC2)cc1 (stereo not given) | . | 97.9 | 100.0 | 90.5
O=C(Cn1c(=O)c(F)cn(C2CCCO2)c1=O)Nc1cccc(I)c1 (stereo not given) | -20.1 | . | 115.4 | 96.2

Following part
SMILES | HCMV UL50-53 inh | GIV Gai3 FP | Sa growth inh | Sa growth inh second temp
NC(=O)CCCc1nc(-c2ccccc2)no1 | . | 102.8 | 79.3 | 89.5
c1ccc(-c2cc3n(c2)CCc2ccccc2-3)cc1 | -21.6 | 107.9 | 120.2 | 81.9
CC1=C(c2sc(-c3ccccc3)nc2-c2cccs2)C(=O)OC1 | 2.5 | . | 110.0 | 86.2
COc1cccc(Nc2nnc(SCC(=O)c3cc(C)n(C)c3C)s2)c1 | -8.0 | . | 72.5 | 90.8
CCSC1=NCCN1C(=O)c1ccc2c(c1)OCO2 | -22.1 | 106.5 | 88.1 | 79.6
Cc1ccc(CNC(=O)c2ccc(CN(Cc3ccccc3)C(=O)Nc3ccccc3)o2)o1 | -31.3 | 108.8 | 92.0 | 83.9
O=c1c2ccccc2[nH]c(=S)n1C1CC1 | -2.6 | 104.7&102.0 | 117.3 | 102.1
COCCn1c(O)c(/C(C)=N/c2sc3c(c2C#N)CCC3)c(=O)[nH]c1=S | -15.4 | . | 71.1 | 71.2
COC(=O)Nc1ccc2c(c1)CCCN2S(=O)(=O)c1ccc(C)cc1 | -26.6 | 101.5 | 78.5 | 78.8
COc1ccc(NCC(O)CSc2ccc(OC)cc2)cc1 (stereo not given) | 0.0 | 102.0 | 113.8 | 70.5
CSC(=C(C#N)C#N)N1CCOCC1 | -7.4 | . | 93.5 | 99.1
NNC(=O)c1cc2ncc(C(F)(F)F)cc2s1 | -29.9 | 99.5 | 0.0* | 0.2*
c1ccc(-c2nnc(OCc3cccnc3)c3ccccc23)cc1 | -2.2 | 105.3 | 82.4 | 55.0
CCOc1ccc(-c2cc3c(SCC(=O)c4cccc(Cl)c4)nccn3n2)cc1 | -1.7 | 102.2 | . | .
Cn1c(=O)c2nc(SCC(N)=O)n(C)c2n(C)c1=O | -35.2 | 101.2 | 84.8 | 91.5
CCC(NC(=O)Nc1cc(C)ccc1OC)c1c(-n2cccc2)sc2c1CCN(C)C2 (stereo not given) | -12.6 | 103.6 | 118.2 | 69.8
CCCc1c(C)nc2c(C)cccc2c1SCCC(=O)O | -22.8 | . | 88.0 | 84.6
COCCn1c(SCC(=O)NCC2CCCO2)nc2c(c1=O)SCC2 (stereo not given) | -34.7 | 104.1 | . | .

Source: PubChem BioAssay (ICCB-Longwood Screening Facility, Harvard Medical School)

Random draw from the library. About 0.85% of those tested had a hit in this group.
